# Source: PubChem BioAssay
# AID504770 = growth inhibitors of E. coli YBA685 in a screen for V. cholerae RctB (chromosome II replication) inhibitors. 0.27% of 130,000 active. z-score (test concentration not listed). AID 504770. E. coli YBA685 rctB-dependent plasmid, OD600 growth, 3 h; active compounds read low;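 active means z-score under -2 on both plates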;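 further: wells of about 30 µL received 100 nL stock; score is relative to mean and SD of the test wells; the first replicate is given; strong numbers were not always called active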
# Ba CapD inh = CapD enzyme inhibition; purified CapD enzyme, fluorescence intensity read-out; active compounds read low; some hits fall short of the stated cut; z-score (no concentration beside the values); 0.23% of 140,000 active; AID 492967;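 active means z-score under -4 in either of two replicates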;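 further: stock transfer was 100 nL into about 40 µL; score is relative to mean and spread of the plate; one replicate is shown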
# Active calls of the source: *; i = inactive; nt = no result given.
SMILES,AID504770,Ba CapD inh
Cc1ccc(OCC(=O)OC2CCS(=O)(=O)C2)cc1 (stereo not drawn),-0.65,i
O=c1[nH]nc(SCc2csc(-c3ccccc3)n2)c(=O)[nH]1,-0.65,nt
O=C1NCCC2C1N=C(N1CCCCC1)N2C1OC(CO)C(O)C1O (stereo not drawn),0.05,0.635
COc1ccc(-c2c(C#N)c(N)nc3sc(C(=O)Nc4ccccc4)c(N)c23)cc1OC,nt,-1.52
CC1(C)OC2OC(C(=O)Nc3ccccc3)C3OC(C)(C)OC3C2O1 (stereo not drawn),nt,-0.73
CCOC(=O)C1=C(O)C(=O)N(C2CCCCC2)C1,nt,-0.085
CN(C)c1ccc(C(O)c2nc3ccccc3n2C)cc1 (stereo not drawn),-0.9,nt
COc1ccc(-c2nc(-c3ccccc3)c(-c3ccc(Oc4ccccc4)cc3)[nH]2)cc1,nt,59.4
Cc1c(C(=O)NCC2CCCO2)oc2ccc(S(=O)(=O)N3CC(C)CC(C)C3)cc12 (stereo not drawn),1.7,-0.175
O=C(/C=C/c1ccc2c(c1)OCO2)Nc1ccc2nc3n(c(=O)c2c1)CCCCC3,0.45,7.27

# Taken from the results shown for reference:
SMILES,AID504770,Ba CapD inh
CN(C)c1ccc(C(O)c2nc3ccccc3n2C)cc1 (stereo not drawn),-0.9,nt
COc1ccc(-c2nc(-c3ccccc3)c(-c3ccc(Oc4ccccc4)cc3)[nH]2)cc1,nt,59.4

# Back to the main list, repeating the 2 entries before the break.
SMILES,AID504770,Ba CapD inh
Cc1c(C(=O)NCC2CCCO2)oc2ccc(S(=O)(=O)N3CC(C)CC(C)C3)cc12 (stereo not drawn),1.7,-0.175
O=C(/C=C/c1ccc2c(c1)OCO2)Nc1ccc2nc3n(c(=O)c2c1)CCCCC3,0.45,7.27
O=S(=O)(NCC1CCCO1)c1ccc(N2CCOCC2)nc1 (stereo not drawn),-0.25,2.58
O=C(/C=C/c1ccco1)OC1CCCCC1=O (stereo not drawn),0.05,nt
Cc1c(C#N)c(N)c(C(=O)c2ccc(Br)cc2)n1-c1ccc(Br)cc1,3.35,0.18
CCC(C)c1ccc(NC(=O)CSc2ccccn2)cc1 (stereo not drawn),0.05,0.2
CC(=O)O/N=C1/CC(C)(C)Cc2onc(C)c21,-0.15,nt
Cc1nc2cc(C(=O)N3CCC4(CC3)OCCO4)ccc2n1-c1ccc(Br)cc1,nt,-0.18
Cc1oc2cc(O)ccc2c(=O)c1-c1ccc(F)cc1,-0.5,16.9
COc1ccc(OCCSc2n[nH]c(N)n2)cc1,0.85,-1.4
FC(F)(F)c1cc(N2CCCC2)c2cccc(Cl)c2n1,-0.35,0.04
CCOC(=O)CC(N)c1ccc(OCC)c(OC)c1 (stereo not drawn),-1.1,0.67
CCOC(=O)c1c(CN2CCC(C(=O)OCC)(c3ccccc3)CC2)n(Cc2ccccc2)c2cc(Br)c(O)cc12,nt,0.305
ON/C=N/c1nc2c(s1)CCc1ccccc1-2,nt,0.16
Cc1ccc(C(=O)N2CCN(Cc3ccccc3)CC2)cc1,nt,0.15
O=C(c1ccc(Nc2nc3ccccc3n3nnnc23)cc1)N1CCN(c2ccccc2)CC1,-0.65,0.165
COc1cc(/C=c2/sc3nc(-c4ccccc4)c(-c4ccccc4)n3c2=O)ccc1OCc1ccc(Cl)cc1Cl,nt,-0.235
ONC=Nc1cc(Cl)c(-n2cccc2)cc1Cl,1.55,-0.305
CCc1ccc(C(=O)CSc2nc3ccccc3c(=O)n2C)cc1,-1.3,0.205
COC(=O)NC1CS(=O)(=O)CC1NC(=O)OC (stereo not drawn),-0.45,-0.025
O=C(NCc1ccco1)c1c(NC(=O)c2nn(-c3ccccc3)ccc2=O)sc2c1CCC2,-0.45,-0.18
CCOC(=O)C/C(C)=N/NC(=O)/C(C#N)=N/Nc1ccccc1[N+](=O)[O-],nt,0
COc1ccc(CN(C)C(=O)CSc2nnc3sc4ccccc4n23)cc1,-0.2,nt
CCCCOc1nnc(-c2ccc(Cl)cc2)c2ccccc12,nt,-0.13
CCC(C)Nc1nc(OC(C(F)(F)F)C(F)(F)F)nc(N2CCOCC2)n1 (stereo not drawn),nt,-0.135
O=C(Nc1ccccc1N1CCOCC1)c1cc2sc3ccccc3c2s1,-1.2,-0.13
OC(c1ccccc1)(c1ccccc1)C1CCN(c2nnnn2-c2ccccc2)CC1,-0.75,nt
O=C(O)c1ccccc1-c1ccccc1C(=O)O,1.1,-0.04
C1CCc2nnc(CCN3CCOCC3)n2CC1,2.45,0.01
C=CCc1ccccc1OCC(O)CN1CCN(CCN2C(=O)c3cccc4cccc(c34)C2=O)CC1 (stereo not drawn),nt,4.7
CCC(CC)c1nn(CC(=O)c2cc(C)n(CCOC)c2C)c(=N)s1,2.1,nt
COCCn1c(SCc2nc(N)nc(Nc3ccccc3C)n2)nc2ccccc21,0.35,nt
O=C(OCC(=O)C12CC3CC(CC(C3)C1)C2)c1cccnc1,0,nt
CCCCNC(=O)CSc1nc(Nc2cc(OC)cc(OC)c2)c2ccccc2n1,nt,-0.075
COc1cccc2c1N(C(=O)c1sc3ccccc3c1Cl)C(C)(C)c1ssc(=S)c1-2,nt,0
CC(C)NC(=O)C(C)n1c2ccccc2c2cnn(C)c(=O)c21 (stereo not drawn),1.85,1.12
COc1cccc(N2CCN(C(=O)C3=C(C)C(=O)OC34CCCCC4)CC2)c1,0.85,-0.585
COc1ccc(OC(C)C(=O)NCc2ccc3c(c2)OCO3)cc1 (stereo not drawn),-1,0.44
O=C(CSc1ncccn1)c1ccccc1,-1.1,0.495
C=CCCCOC(=O)NNC(=O)c1noc(C)c1-c1csc(C)n1,nt,-0.785
CCOc1ccccc1NC(=O)CCc1nnc2ccc(N3CCN(C)CC3)nn12,1.55,-0.405
CCn1cc(C(=O)N2CC(C)CC(C)C2)c(=O)c2cc(S(=O)(=O)N3CCC(C)CC3)ccc21 (stereo not drawn),0.3,-0.38

# In the list so far, 4 contain a thiophene ring, fused or not.
SMILES,AID504770,Ba CapD inh
COc1ccc(-c2c(C#N)c(N)nc3sc(C(=O)Nc4ccccc4)c(N)c23)cc1OC,nt,-1.52
O=C(NCc1ccco1)c1c(NC(=O)c2nn(-c3ccccc3)ccc2=O)sc2c1CCC2,-0.45,-0.18
O=C(Nc1ccccc1N1CCOCC1)c1cc2sc3ccccc3c2s1,-1.2,-0.13
COc1cccc2c1N(C(=O)c1sc3ccccc3c1Cl)C(C)(C)c1ssc(=S)c1-2,nt,0

# New compounds follow.
SMILES,AID504770,Ba CapD inh
CC(C)Oc1ccc(C(=O)NCc2cccnc2)cc1,-0.6,nt
Cc1cccc(C)c1NC(=O)CS(=O)CC(=O)NC1CCCc2ccccc21 (stereo not drawn),-0.5,nt
O=C(c1ccsc1)N1CCN(CCCC(c2ccc(F)cc2)c2ccc(F)cc2)CC1,nt,0.16
CCOC(=O)c1ccc(N(C(C)=O)c2nc(-c3cc4cccc(OCC)c4oc3=O)cs2)cc1,-0.95,-0.505
COc1ccc(CCNC(=O)CCn2c(=O)oc3ccccc32)cc1OC,-0.7,0.365
CNS(=O)(=O)Cc1ccccc1Cl,-1.15,-0.105
COc1ccc(OCCNC(=O)OCCc2ccccc2Cl)cc1,nt,-0.32
O=C(CN1CCN(Cc2ccccc2)CC1)Nc1ccccc1,-1.2,-0.16
C=CCN1C(=O)/C(=C/c2ccc3c(c2)n(C)c(=O)n3C)C(=O)NC1=S,0.45,-0.005
COc1ccc(NC(=O)N2CC=C(c3c[nH]c4ccccc34)CC2)cc1,0.9,0.355
O=C(O)Cn1cnc(-c2ccc(Br)cc2)c1,-0.15,-0.23
O=C(OCc1cc(=O)oc2cc(O)ccc12)c1nc(Cl)ccc1Cl,-0.35,nt
C=CCNC(=O)CN1C(=O)C2C3c4ccccc4C(c4ccccc43)C2C1=O (stereo not drawn),nt,-0.35
O=C(Nc1ccccc1)c1ccc2snnc2c1,-1.3,-0.29
O=C(O)/C=C/c1c(Cl)nc2sccn12,2.2,-0.825
C(=N\n1cnnc1)/c1ccc2ncccc2c1,-0.5,-0.365
Cc1c(CN2CCCCC2)c(O)n(CCO)c(=O)c1C#N,0,nt
COc1cccc(C(=O)N(Cc2cccnc2)Cc2cc3cc(C)cc(C)c3[nH]c2=O)c1,-0.25,nt
CSc1nnc2c(n1)-c1cccc3cccc-2c13,nt,-0.5
FC(F)(F)Sc1nc2ccccc2[nH]1,0.8,0.36
O=C(Nc1cccc(C(=O)c2ccccc2)c1)c1ccc([N+](=O)[O-])cc1,nt,-0.51
COC(=O)C1=C(NC(=O)COc2ccc(Cl)cc2)CCS1,-0.45,nt
O=C1c2ccccc2C(=O)N1CCSc1nc2cc(Cl)ccc2c(=O)n1Cc1ccco1,-0.7,nt
CCOC(=O)N1CCCN=C1SC,nt,-0.17
COc1ccc2cc(C(=O)NCc3cccc(Cl)c3)c(=Nc3ccc(C(=O)O)cc3)oc2c1,nt,4.96
CCOC(=O)CCCn1nc(C)c2c(C)n(-c3ccc(C)cc3)nc2c1=O,-0.6,-0.605
CCCN1CCN(CC(=O)c2ccc3cc[nH]c3c2)CC1,0.95,6.41
O=C(/C=C/c1cccs1)NCc1ccccc1,0.05,nt
O=S(=O)(c1ccc(F)cc1F)N1CCCN(c2ccc(C(F)(F)F)cn2)CC1,0.15,1.03
Cc1cccc(C(=O)Nc2nc3cc4sc(NC(=O)c5cccc(C)c5)nc4cc3s2)c1,0.65,3.11
O=c1/c(=C/c2ccccc2OCc2cccc3ccccc23)sc2nc3ccccc3n12,nt,-0.015
CS(=O)(=O)NC(CC(=O)O)c1ccccc1Cl (stereo not drawn),0.5,nt
O=C(O)c1c(-c2ccccc2)c2oc3ccccc3c2[nH]c1=O,-0.35,2.84
CN(C)S(=O)(=O)c1ccc(NC(=O)c2cnc(Cl)c(Cl)c2)cc1,1,nt
N#Cc1cc(-c2ccccc2)oc1/N=C/c1ccc(Oc2ccccc2)cc1,nt,0.71
O=[N+]([O-])c1ccc(Cl)c(-c2nc(-c3ccccc3)c(-c3ccccc3)[nH]2)c1,nt,5.88
O=c1[nH]c(SCc2nnc(Nc3ccccc3)s2)nc2sc3c(c12)CCC3,1.05,-0.21
O=C(Cn1c2c(c(-c3ccccc3)cc1=O)CCCC2)NCc1ccc(Cl)cc1,-0.2,0.475
CC(C)(C)c1ccc(OCCn2cccc2/C=C2/C(=N)N3C=CSC3=NC2=O)cc1,1.05,0.8
CCOC(=O)c1c(NC(=O)Cn2nnc3sc4c(c3c2=O)CCC(C)C4)sc2c1CCCC2 (stereo not drawn),2.55,-1.79
COC(=O)CN1C(C)=Nc2ccc(C)cc2C1c1ccccc1 (stereo not drawn),-0.05,1.81
O=C(N/N=C/c1ccc(Br)cc1)c1ccc(-n2cnnn2)cc1,-0.15,nt
Cc1ccc(C2c3c(n[nH]c3C)C(=O)N2c2ccc(C)cc2)cc1 (stereo not drawn),0.15,0.065
Cn1c(CSC2=NCCN2)nc2ccccc21,-0.05,-0.22
O=C(NC1=NCCS1)NC12CC3CC(CC(C3)C1)C2,-0.1,nt
COc1ccc(C(F)(F)F)cc1NC(=O)c1ccc(Br)o1,2.6,0.15
CC1(C)C(c2nc(-c3ccc(Br)cc3)no2)C1(C)C,-0.4,-0.095
C=CCn1c(COc2ccc(CC)cc2)nnc1SC/C(O)=C(\C#N)c1nc2ccccc2[nH]1,1.3,nt
Cc1nn(-c2ccccc2)c(Cl)c1C(=O)NCC1CCCO1 (stereo not drawn),-0.7,nt
CSc1cccc(NC(=O)c2ccccc2F)c1,1.65,0.745
# Later entries.
SMILES,AID504770,Ba CapD inh
COc1ccc(Br)cc1S(=O)(=O)Oc1c(Cl)cc(C(C)(C)C)cc1Br,nt,0.445
Cc1ccc(S(=O)(=O)N(C)C2CCN(Cc3cc4ccccc4o3)C2)cc1Cl (stereo not drawn),nt,0.355
Cc1cc(C)c(CSC(C)(C)CN2C(=O)Cc3ccccc3C2=O)c(C)c1,nt,0.165
C1=C(c2ccccc2)CCN(Cc2nnc(-c3ccc4c(c3)OCO4)o2)C1,-0.85,0.315
COc1cccc(C2=NN3C(C2)c2cccc(OC)c2OC32CCCCC2)c1 (stereo not drawn),nt,-0.23
COc1ccc(C(=O)NNC(=O)Cc2ccc(OC)c(OC)c2)cc1,nt,-0.3
O=C(c1cc(C(F)(F)F)cc(C(F)(F)F)c1)N1CCC(O)(c2ccc(Cl)cc2)CC1,-1.2,-0.095
O=C(COc1ccc(-c2ccccc2)cc1)NCCN1CCOCC1,0.4,0.1
CC(C)(C)Sc1ccccc1CN1CCN(C(=O)OCc2ccc(F)cc2)CC1,nt,-0.09
CN/N=C/c1cc(OC)c(O)c(OC)c1,-0.95,nt
Cc1sc2ncnc(Oc3cccc(C(F)(F)F)c3)c2c1-c1ccccc1,1.4,5.11
COC(=O)c1ccccc1NC(=S)OC,-0.8,-1.44
Cc1ccc(SCc2cccc(C(=O)N3CCN(c4ncccc4C(F)(F)F)CC3)c2)cc1,-0.6,0.67
COc1cccc(-c2cc(C(=O)NCc3ccc(F)cc3)c3ccccc3n2)c1,nt,10.9
CCS(=O)(=O)N1CCCC(C(=O)NCc2cccnc2)C1 (stereo not drawn),-0.05,5.67
O=C(CSC1=NC(=O)C(Cc2ccccc2)C(=O)N1)Nc1ccccc1Cl (stereo not drawn),nt,0.195
Cc1oc(S(=O)(=O)N2CCCC2)cc1C(=O)NCc1ccc2c(c1)OCO2,-0.1,-0.045
CCOC(=O)c1c(N)n(C(C)c2ccccc2)c2nc3ccccc3nc12 (stereo not drawn),0.7,nt
c1ccc2c(c1)COC(CN1CCCCC1)OC2,-0.35,-0.055
CC(C)(C)CC(C)(C)NS(=O)(=O)Cc1ccccc1,0.8,-0.005
CC12CC3CC(C)(C1)CC(C(=O)Nc1ccc4c(c1)OCO4)(C3)C2,0.25,nt
O=C(NC1CC1)c1cc(N2CCOCC2)nc(N2CCOCC2)n1,nt,-0.38

# Whole records, quoted from the list. Screens in order: AID504770, Ba CapD inh
# CCS(=O)(=O)N1CCCC(C(=O)NCc2cccnc2)C1 (stereo not drawn) across the screens: -0.05, 5.67
# Cc1ccc(SCc2cccc(C(=O)N3CCN(c4ncccc4C(F)(F)F)CC3)c2)cc1 across the screens: -0.6, 0.67
